Vaccinia inh = Vaccinia orthopox stage-specific inhibition | 89,000 compounds, 0.01% hits | AID 1053133 | activity change (mCherry), % (test concentration not listed) | Vaccinia-infected cells, mCherry/Venus stage reporter fluorescence; hits give low values; some inactives read as strong as hits;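 active = mCherry past -33% and 40 or more points under the early reporter, replicates agreeing; inconclusive = past -33% without that gap or agreement; tested in A549 cells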;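 note: scaled between vehicle wells and reference inhibitor wells; 23 nL library stock went into each well; one replicate is shown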
Vaccinia inh Venus = also measured in Vaccinia inh; calls as there; activity change (Venus), %; measured here: Venus reporter, other viral stage;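 negative = less Venus signal; first of two replicates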
* hit, by the source's call; u = inconclusive; x = no result given.

SMILES	Vaccinia inh	Vaccinia inh Venus
C[C@H](CO)N1C[C@H](C)[C@H](CN(C)S(=O)(=O)c2cn(C)cn2)Oc2ccc(NS(=O)(=O)c3cccs3)cc2CC1=O	6	7
C/C=C/c1cnc2c(c1)C(=O)N([C@@H](C)CO)C[C@H](C)[C@H](CN(C)C(=O)Nc1ccc(OC)cc1)O2	9	0
C[C@@H]1CN([C@@H](C)CO)C(=O)c2cccc(NC(=O)CCCCCC(=O)Nc3ccccc3N)c2O[C@H]1CN(C)Cc1ccc(-c2ccccc2)cc1	-14	-13
N#C[C@@H]1[C@H](c2ccccc2C2=CCCC2)[C@@H](CO)N1C(=O)c1cccc(F)c1	-13	-2
O=C(C[C@H]1CC[C@H]2NC[C@@H](O)COC[C@@H]2O1)NC1Cc2ccccc2C1	9	19
N#C[C@H]1[C@@H](c2ccccc2C2=CCCC2)[C@H](CO)N1C(=O)C1CCCC1	-5	-4
C[C@@H]1CCCCO[C@@H](CN(C)S(=O)(=O)c2ccc(Cl)cc2)[C@@H](C)CN([C@@H](C)CO)C(=O)c2cc(NC(=O)c3ccccc3)ccc2O1	-32	-21
CC(C)NC(=O)Nc1cccc2c1O[C@H](CN(C)C(=O)Nc1ccc(F)cc1)[C@@H](C)CN([C@@H](C)CO)C2=O	11	9
CO[C@H]1CN(C)C(=O)c2ccc(NC(=O)c3cc(C)on3)cc2OC[C@H](C)N(C(=O)C2CC2)C[C@H]1C	-9	-9
C[C@H](CO)N1C[C@H](C)[C@@H](CN(C)S(=O)(=O)c2ccccc2)Oc2c(NS(=O)(=O)c3cccs3)cccc2C1=O	21	15
CCC(=O)N1C[C@H](C)[C@H](OC)CN(C)C(=O)c2ccc(NC(=O)COC)cc2OC[C@@H]1C	4	7
C[C@@H]1CN([C@H](C)CO)C(=O)c2cc(NC(=O)Nc3ccccc3)ccc2O[C@@H]1CN(C)Cc1ccc(-c2ccccc2)cc1	u	x
CNC[C@@H]1Oc2c(NC(=O)Nc3ccc(OC)cc3)cccc2C(=O)N([C@H](C)CO)C[C@H]1C	-1	0
C[C@H](CO)N1C[C@H](C)[C@H](CN(C)C(=O)NC2CCCCC2)OCCCC[C@H](C)Oc2ccc(NC(=O)Nc3ccc(C(F)(F)F)cc3)cc2C1=O	-9	1
C/C=C/c1cnc2c(c1)C(=O)N([C@H](C)CO)C[C@H](C)[C@H](CN(C)S(=O)(=O)c1ccccc1)O2	15	3
COCC#Cc1ccc2c(c1)O[C@@H](CN(C)S(=O)(=O)c1ccc(C)cc1)[C@H](C)CN([C@H](C)CO)S2(=O)=O	-15	-16
CCC(=O)Nc1ccc2c(c1)C(=O)N(C)C[C@H](OC)[C@H](C)CN(CC1CC1)[C@@H](C)CO2	4	12
CCCNC(=O)Nc1ccc2c(c1)OC[C@H](C)N(C(=O)c1ccccc1F)C[C@H](C)[C@H](OC)CN(C)C2=O	1	-1
C[C@@H]1CN([C@@H](C)CO)S(=O)(=O)c2ccc(-c3cccc(C#N)c3)cc2O[C@@H]1CN(C)C(=O)Nc1ccccc1F	u	x
COc1ccc(S(=O)(=O)Nc2ccc3c(c2)CC(=O)N([C@H](C)CO)C[C@H](C)[C@H](CN(C)S(=O)(=O)c2ccc(Cl)cc2)O3)cc1	-17	-11
C[C@@H]1CN([C@@H](C)CO)C(=O)c2cc(NS(C)(=O)=O)ccc2O[C@H]1CN(C)Cc1ccc(-c2ccccc2)cc1	0	-7
CC(C)(C)S(=O)N1Cc2cc(C(=O)NCc3ccc4c(c3)OCO4)nc(-c3cccc(-c4cc5ccccc5o4)c3)c2[C@H]1CCO (stereo not given in full)	-6	4
Cc1noc(C)c1NC(=O)N(C)C[C@@H]1Oc2ccc(NC(=O)Cn3cnnn3)cc2C(=O)N([C@@H](C)CO)C[C@@H]1C	10	5
C[C@H]1CN([C@@H](C)CO)C(=O)Cc2cc(NC(=O)Cc3cn(C)c4ccccc34)ccc2O[C@@H]1CN(C)CC1CCCCC1	-29	-28
C[C@H](CO)N1C[C@H](C)[C@H](CN(C)C(=O)C2CCC2)Oc2ncc(-c3ccccc3F)cc2C1=O	-12	-2
COC(=O)[C@H]1[C@H](CO)[C@H]2Cn3c(ccc(-c4ccccc4)c3=O)[C@H]2N1Cc1cccc(F)c1	-15	-7
C[C@@H]1CCCCO[C@H](CN(C)C(=O)c2ccccc2)[C@H](C)CN([C@H](C)CO)C(=O)c2cc(NS(=O)(=O)c3cccs3)ccc2O1	-13	-14
CCC(=O)N1[C@@H]2c3ccc(-c4cccc(F)c4)c(=O)n3C[C@H]1[C@H](CO)[C@H]2C(=O)OC	5	4
C[C@H](CO)N1C[C@H](C)[C@@H](CN(C)S(=O)(=O)c2ccccc2)Oc2c(NS(=O)(=O)c3ccc(F)cc3)cccc2C1=O	14	18
C[C@H](CO)N1C[C@H](C)[C@H](CN(C)C(=O)Nc2ccc(C(F)(F)F)cc2)Oc2ncc(Br)cc2C1=O	-9	-10
C[C@H](CO)N1C[C@H](C)[C@@H](CN(C)CC2CCCCC2)Oc2ccc(NC(=O)Cn3cnnn3)cc2C1=O	10	21
O=C(Nc1cccc(F)c1)N1CCCCN2[C@@H](CO)[C@@H](c3ccc(C#CC4CC4)cc3)[C@@H]2C1	u	x
COc1cccc(C(=O)Nc2ccc3c(c2)OC[C@@H](C)N(C(=O)C2CC2)C[C@@H](C)[C@H](OC)CN(C)C3=O)c1	0	-1
Cc1noc(C)c1S(=O)(=O)Nc1ccc2c(c1)C(=O)N([C@H](C)CO)C[C@H](C)[C@H](CN(C)C(=O)Nc1ccc(F)cc1)OCCCC[C@H](C)O2	-24	-20
COc1ccc(-c2ccc([C@H]3[C@H](CO)N4CCCCN(CC5CCOCC5)C[C@@H]34)cc2)cc1	12	0
CNC[C@H]1OCCCC[C@@H](C)Oc2ccc(NS(C)(=O)=O)cc2C(=O)N([C@@H](C)CO)C[C@H]1C	-6	6

Complete entries, quoted from the list.
C[C@H](CO)N1C[C@H](C)[C@@H](CN(C)S(=O)(=O)c2ccccc2)Oc2c(NS(=O)(=O)c3ccc(F)cc3)cccc2C1=O is listed as Vaccinia inh: 14; Vaccinia inh Venus: 18
C[C@H](CO)N1C[C@H](C)[C@@H](CN(C)CC2CCCCC2)Oc2ccc(NC(=O)Cn3cnnn3)cc2C1=O is listed as Vaccinia inh: 10; Vaccinia inh Venus: 21

Following part.
SMILES	Vaccinia inh	Vaccinia inh Venus
C[C@@H]1CN([C@@H](C)CO)C(=O)c2ccccc2-c2ccccc2CO[C@H]1CN(C)C(=O)Nc1cccc(C(F)(F)F)c1	-25	-18
C[C@@H]1CN([C@@H](C)CO)C(=O)c2cc(NC(=O)Nc3ccc(F)cc3)ccc2O[C@@H](C)CCCCO[C@H]1CN(C)C(=O)CCCN(C)C	9	5
COc1ccc(-c2ccc([C@@H]3[C@@H](C#N)N(C(=O)C4CCCCC4)[C@H]3CO)cc2)cc1	-9	-14
C[C@@H]1CN([C@@H](C)CO)C(=O)c2cc(-c3ccc(F)cc3)cnc2O[C@@H]1CN(C)Cc1cncnc1	8	4
C[C@H](CO)N1C[C@H](C)[C@@H](CN(C)S(=O)(=O)c2cccs2)OCCCC[C@H](C)Oc2ccc(NC(=O)Nc3ccc(F)cc3)cc2C1=O	-18	3
C[C@@H]1CN([C@@H](C)CO)C(=O)c2cccc(NC(=O)Nc3ccccc3)c2O[C@@H]1CN(C)C(=O)Nc1ccc(C(F)(F)F)cc1	-30	-31
COc1cccc(C#Cc2ccc3c(c2)O[C@@H](CN(C)C)[C@H](C)CN([C@@H](C)CO)S3(=O)=O)c1	u	x
C[C@H]1CCCCO[C@H](CN(C)S(=O)(=O)c2cccs2)[C@@H](C)CN([C@@H](C)CO)C(=O)c2cc(NC(=O)CCCN(C)C)ccc2O1	6	-1
Cc1cccc(-c2ccc([C@H]3[C@H](CO)N4CCCCN(Cc5cccnc5)C[C@@H]34)cc2)c1	-29	-32
C[C@@H]1CN([C@H](C)CO)C(=O)c2cccc(NC(=O)c3cnccn3)c2O[C@@H]1CN(C)Cc1ccc(C(=O)Nc2ccccc2N)cc1	u	x
COCC(=O)Nc1ccc2c(c1)OC[C@H](C)N(Cc1ccccc1F)C[C@H](C)[C@H](OC)CN(C)C2=O	-30	-23
CC=Cc1ccc2n(c1=O)C[C@@H]1[C@@H](CO)[C@H](C(=O)NCCN3CCCC3)N(C(=O)NCCC)[C@H]21 (mixture of isomers)	9	3
C[C@H](CO)N1C[C@H](C)[C@@H](CN(C)C(=O)Nc2ccc3c(c2)OCO3)Oc2c(NS(=O)(=O)c3ccc(Cl)cc3)cccc2C1=O	16	12
CO[C@H]1CN(C)C(=O)c2cc(NC(C)=O)ccc2OC[C@H](C)N(Cc2cc(F)ccc2F)C[C@H]1C	2	-4
C[C@H]1CCCCO[C@@H](CN(C)Cc2ccccc2)[C@@H](C)CN([C@@H](C)CO)C(=O)c2cc(NC(=O)c3ccncc3)ccc2O1	u	x
C[C@@H]1CN([C@H](C)CO)C(=O)Cc2cc(NC(=O)Nc3ccccc3)ccc2O[C@H]1CN(C)Cc1ccc(Oc2ccccc2)cc1	-10	-4
C[C@H]1CN([C@@H](C)CO)C(=O)Cc2cc(NC(=O)Cc3cn(C)c4ccccc34)ccc2O[C@@H]1CN(C)C(=O)Nc1ccc2c(c1)OCO2	14	12
C[C@@H]1CN([C@H](C)CO)C(=O)c2cc(NS(C)(=O)=O)ccc2O[C@@H]1CN(C)S(=O)(=O)c1cn(C)cn1	7	3
C[C@@H]1CN([C@H](C)CO)C(=O)c2cc(N(C)C)ccc2O[C@@H](C)CCCCO[C@@H]1CN(C)Cc1ccc(C(F)(F)F)cc1	-28	-33
CO[C@H]1CN(C)C(=O)c2ccc(NC(C)=O)cc2OC[C@@H](C)N(CCC(F)(F)F)C[C@@H]1C	11	13
CCC(=O)NC[C@@H]1[C@@H](c2ccc(C3=CCCC3)cc2)[C@@H](CO)N1CC1CCCC1	-26	-8
O=C(CC1CC1)Nc1ccc2c(c1)[C@@H]1C[C@@H](CC(=O)N3CCCCC3)O[C@@H](CO)[C@@H]1O2	2	0
Cc1ccc(S(=O)(=O)N[C@@H]2CC[C@@H](CCNC(=O)CN3CCOCC3)O[C@H]2CO)cc1	7	6
Cc1ccc(-c2cnc3c(c2)C(=O)N([C@@H](C)CO)C[C@@H](C)[C@@H](CN(C)C(=O)c2ccc(F)cc2)O3)cc1	-20	-15

A different layout for part of the listing above.
> Cc1ccc(S(=O)(=O)N[C@@H]2CC[C@@H](CCNC(=O)CN3CCOCC3)O[C@H]2CO)cc1
  Vaccinia inh = 7
  Vaccinia inh Venus = 6

> Cc1ccc(-c2cnc3c(c2)C(=O)N([C@@H](C)CO)C[C@@H](C)[C@@H](CN(C)C(=O)c2ccc(F)cc2)O3)cc1
  Vaccinia inh = -20
  Vaccinia inh Venus = -15

> CO[C@H]1CN(C)C(=O)c2cc(NC(C)=O)ccc2OC[C@H](C)N(Cc2cc(F)ccc2F)C[C@H]1C
  Vaccinia inh = 2
  Vaccinia inh Venus = -4

> C[C@H](CO)N1C[C@H](C)[C@@H](CN(C)C(=O)Nc2ccc3c(c2)OCO3)Oc2c(NS(=O)(=O)c3ccc(Cl)cc3)cccc2C1=O
  Vaccinia inh = 16
  Vaccinia inh Venus = 12

Carrying on:
SMILES	Vaccinia inh	Vaccinia inh Venus
COc1ccc(CN(C)C[C@H]2Oc3ccc(NC(=O)Nc4ccc5c(c4)OCO5)cc3C(=O)N([C@H](C)CO)C[C@H]2C)cc1	-7	0
CO[C@H](CN(C)Cc1ccc2c(c1)OCO2)[C@@H](C)CN(C(=O)c1ccccc1)[C@@H](C)CO	17	9
O=C(C[C@H]1C[C@H]2c3cc(NC(=O)C4CCOCC4)ccc3O[C@H]2[C@H](CO)O1)NCc1ccc(Oc2ccccc2)cc1	-10	-10
CCCNC(=O)N1[C@@H]2c3cccc(=O)n3C[C@H]1[C@H](CO)[C@H]2C(=O)NCC(F)(F)F	9	13
C[C@H](CO)N1C[C@H](C)[C@@H](CN(C)Cc2ccncc2)OCCCC[C@H](C)Oc2ccc(NC(=O)Nc3ccc4c(c3)OCO4)cc2C1=O	-10	-23
CN(C)C(=O)c1cccc(-c2ccccc2[C@@H]2[C@@H](C#N)N(C(=O)C3CCCC3)[C@H]2CO)c1	0	-1
Cc1cccc(-c2ccc([C@@H]3[C@@H](CO)N4C(=O)CN(C(=O)Cc5ccccn5)C[C@@H]34)cc2)c1	5	-2
Cc1noc(C)c1NC(=O)Nc1ccc2c(c1)C(=O)N([C@@H](C)CO)C[C@@H](C)[C@@H](CN(C)CC1CCCCC1)OCCCC[C@@H](C)O2	12	0
C[C@H]1CN([C@@H](C)CO)C(=O)c2cccc(NC(=O)C3CCOCC3)c2O[C@@H]1CN(C)Cc1ccccc1	-6	-7
Cc1noc(C)c1NC(=O)N[C@H]1CC[C@H](CC(=O)N2CCCCC2)O[C@@H]1CO	6	-2
C[C@@H]1CN([C@H](C)CO)C(=O)c2cc(NC(=O)Nc3ccccc3)ccc2O[C@H]1CN(C)Cc1ccc(C(=O)O)cc1	22	12
O=C(C[C@H]1CC[C@H](NC(=O)Nc2ccc3c(c2)OCO3)[C@@H](CO)O1)NCc1ccccc1	6	11
Cc1noc(C)c1NC(=O)Nc1ccc2c(c1)C(=O)N([C@@H](C)CO)C[C@@H](C)[C@@H](CN(C)C(=O)Nc1ccc3c(c1)OCO3)O2	14	8
COc1ccc(S(=O)(=O)N(C)C[C@@H]2Oc3ccc(NC(=O)Nc4c(C)noc4C)cc3CC(=O)N([C@H](C)CO)C[C@H]2C)cc1	2	12
Cc1noc(C)c1NC(=O)Nc1cccc2c1O[C@@H](CN(C)S(=O)(=O)c1cn(C)cn1)[C@@H](C)CN([C@@H](C)CO)C2=O	3	6

These rows are one share of the data. The share of hits here may be higher or lower than overall.
